Bioassay records from PubChem.
Rango-impB inh: qHTS Assay for Inhibitors of Rango (Ran-regulated importin-beta cargo) - Importin beta complex formation; Importin subunit beta-1 (Homo sapiens), Q14974; Rango CFP/YFP FRET sensor + importin beta, 45 min; Potency, µM (doses to about 92.2 µM), without a hit: top-dose inhibition of complex formation; actives 0.031% (n = 340,000); AID 540263, 2011; active = rising FRET ratio curve, often small or poorly fitted; inconclusive = mostly compound fluorescence or quenching in the first reads; inactive = flat curves in all reads;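 also: potency is read from the fitted curve at half-maximal effect; 0% = DMSO wells and 100% = buffer wells lacking importin beta; nearly all actives have a fitted effect of over 15% in size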
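FRET biosensor Rango (snurportin 1 IBB between N-terminal EYFP and C-terminal Cerulean), 50 nM in PBS/1 mM DTT/0.02% Tween-20/0.1% BSA, preincubated 5 min RT with compound; 0.125 microM importin beta added, 45 min RT, CFP/YFP FRET ratio read.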
Rango release inh: qHTS Assay for Inhibitors of RanGTP induced Rango (Ran-regulated importin-beta cargo) - Importin beta complex dissociation | Biochemical FRET Rango-importin beta, RanGTP-induced dissociation | actives 0.071% (n = 340,000) | Potency, µM (titrated, usually from 46.1 µM), for inactives: at the highest dose activity change, negative = inhibition | AID 540253, 2011; active means falling FRET ratio curve, often poorly fitted, with flat reads before Ran was added; inconclusive means other falling curves, or compound fluorescence or quenching; inactive means flat or rising ratio curve;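 also: potency is read from the fitted curve at half-maximal effect; % of control where 0% means no effect; nearly all actives have a fitted effect of over 45% in size; -100% = wells without RanGTP and RCC1; the record marks most hits as doubtful in a second field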
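FRET read at 45 min, room temperature: inhibitors block the CFP/YFP signal rise when RanGTP (0.6 uM Ran, 2 mM GTP, 0.2 uM RCC1) frees Rango (0.1 uM) from importin beta (0.25 uM). Pre-read after 5 min compound exposure flags interference.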
miR-21 FLuc: qHTS Assay for Modulators of miRNAs and/orActivators of miR-21; Potency, µM (top dose mostly 38.3 µM), for the others: at the top dose reporter change, positive = more light; HeLa miR-21 FLuc reporter, luciferase, 48 h; 340,000 tested, under 10 active; AID 2288, 2010; active = well fitted rising curve with a large enough effect; inconclusive = small, poorly fitted or top-dose-only effect; inactive = no such curve, though single readings can be large or run the other way;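 also: % of control where 0% means no effect; miR-21 action dims this reporter so a rising signal means less miR-21 action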
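Luminescence from a firefly luciferase reporter carrying a miR-21 binding site downstream, stably expressed under a CMV promoter in HeLa cells that make miR-21 endogenously, reports miRNA modulation after 48 h compound exposure up to approximately 40uM final.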
GLA inh pH 4.5: qHTS Assay for Inhibitors of Human alpha-Galactosidase at pH 4.5 | Alpha-galactosidase A (Homo sapiens), P06280 | purified enzyme, 4-MU-alpha-Gal fluorescence, pH 4.5 | activity change, negative = inhibition, % at 105 µM | AID 1467, 2008 | 230,000 tested, under 10 active; inconclusive = small, poorly fitted or top-dose-only inhibition, or a rising curve; inactive = flat fitted curve, though single readings scatter; no compound was filed as active;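 also: 0% = full activity with enzyme and -100% = basal without enzyme; dose as in the result columns while the protocol names 77 µM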
Target sequence (P06280 whole entry, looked up): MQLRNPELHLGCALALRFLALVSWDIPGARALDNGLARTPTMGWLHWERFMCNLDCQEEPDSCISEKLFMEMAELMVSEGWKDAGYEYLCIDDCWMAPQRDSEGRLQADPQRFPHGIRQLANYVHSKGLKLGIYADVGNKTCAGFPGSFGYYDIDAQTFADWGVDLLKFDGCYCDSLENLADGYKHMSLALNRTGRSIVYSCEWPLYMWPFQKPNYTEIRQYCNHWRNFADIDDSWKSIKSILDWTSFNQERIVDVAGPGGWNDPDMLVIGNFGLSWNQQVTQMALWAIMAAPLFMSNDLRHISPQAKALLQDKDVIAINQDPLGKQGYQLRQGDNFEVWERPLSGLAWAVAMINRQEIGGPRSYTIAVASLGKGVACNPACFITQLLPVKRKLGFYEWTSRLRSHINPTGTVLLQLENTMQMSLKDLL
The depositor's hits bear a star; ? = inconclusive; / = not tested or not shown; & = joins results of further samples. A portion of the library. The share of hits here may be higher or lower than overall.

Rango-impB inh,Rango release inh,miR-21 FLuc,GLA inh pH 4.5,molecule
0.2%,1%,-1%,-1,COCC1CCCCN1Cc1cn[nH]c1-c1ccc(OC)cc1OC (centres undefined)
-0.7%,12%,-35%,9,Cc1ccc(/C=N/N2CCN(Cc3ccccc3)CC2)s1
-1.8%,8%,-30%,1,COc1c(C)cccc1C(=O)Nc1ccc(CN2CCOCC2)cc1
1.3%,-17%,-10%,5,CCCCCn1c(SCCCC)nc2c1c(=O)[nH]c(=O)n2C
0.8%,-12%,-9%,1,CCCCNC(=S)N(C)/N=C/c1ccc(F)cc1
-0.1%,-1%,/,/,COC(=O)[C@]1(CC(C)C)N[C@H](c2ccc(-c3cccc(Cl)c3)cc2)[C@@H]2C(=O)N(C)C(=O)[C@@H]21
2.7%,-6%,-6%,-12,COc1ccc(/C=N/NC(=O)c2c(C)nc3ccccn23)cc1[N+](=O)[O-]
1.4%,5%,-57%,-14,O=C(Nc1cccc(-c2nc3ccccc3[nH]2)c1)c1ccc(C(=O)Nc2cccc(-c3nc4ccccc4[nH]3)c2)cc1
3.1%,3%,10%,/,Cc1ccc(NC(=O)CN2C(=O)NC(C)(c3ccc(Cl)cc3)C2=O)cc1 (centres undefined)
-3.2%,0%,-15%,1,C=CCn1c(SCn2nnc3ccccc3c2=O)nnc1-c1ccc(Br)cc1
3.9%,-13%,5%,1,CCCC1=C(C(=O)OCC)C(c2cccs2)n2ncnc2N1 (centres undefined)
-0.4%,-3%,/,/,COc1ccc(NC(=O)c2cc([N+](=O)[O-])ccc2N2CCCC2)cc1S(N)(=O)=O
0.7%,-7%,0%,-9,Cn1c(=O)oc2cc(S(=O)(=O)NCCC(=O)Nc3ccc4c(c3)OCCO4)ccc21
-5.5%,-21%,-13%,-9,CCN(Cc1ccccc1)C(c1ccccn1)c1nnnn1C1CCCCC1 (centres undefined)
-1.8%,11%,-2%,-2,COc1ccc(C2=NOC(C(=O)Nc3cc(C)on3)C2)cc1OC (centres undefined)
1.6%,-7%,/,/,Cc1ccc(S(=O)(=O)N2CCOCC2)cc1C(=O)OCC(=O)NCc1ccccc1
-3.7%,-12%,8%,-2,CCOC(=O)c1c(NC(=O)CSc2nnc(CNc3ccc(Cl)cc3)o2)sc(C)c1C
1.1%,2%,1%,/,COc1ccccc1-c1coc2c(CN3CCC(C)CC3)c(O)ccc2c1=O
-0.5%,-15%,/,/,Cc1ccc2c(c1)CCCN2C(=O)c1cc(C)c(C)s1
-0.1%,-15%,1%,/,CC1CN(C(=O)Cn2cc(S(=O)(=O)CC(=O)N3CCOCC3)c3ccccc32)CC(C)O1 (centres undefined)
?,?,19%,3,COc1cc2c(O)c3c(c(-c4ccc5c(c4)OCO5)c2cc1OC)C(=O)OC3
0.3%,1%,-7%,-4,CN(C)S(=O)(=O)Nc1ccc(Br)cc1F
-0.6%,-11%,/,/,O=C(Nc1cc2c(cc1Br)OCCO2)c1ccc(=O)[nH]c1
5.6%,25%,-4%,-10,O=C(c1cccs1)N1N=C(c2ccccc2)CC1c1ccccc1 (centres undefined)
-1.0%,-14%,-60%,/,O=C(Nc1ccccc1F)C(=O)Nc1cccc2ccccc12
-5.2%,7%,/,/,COc1ccc(-c2c(-c3cc(OC)cc(OC)c3)n(C)c3ccc(-c4ccc5c(c4)OCCO5)cc23)cc1
-0.6%,10%,-3%,7,COc1ccc(OCC(=O)NC(=S)Nc2ccc3c4c(cccc24)CC3)cc1
-0.4%,8%,-2%,4,COc1ccc(CNc2nc(-c3cccnc3)nn2C(=O)CC(C)C)cc1
-0.5%,9%,/,/,CC(C)CN(C(=O)COC(=O)c1ccc(Cl)nc1)c1c(N)n(Cc2ccccc2)c(=O)[nH]c1=O
-0.8%,4%,-1%,4,O=C(c1ccc(S(=O)(=O)N2CCOCC2)cc1)N1CCN(c2ccccn2)CC1
3.1%,5%,/,/,CN(C(=O)c1ccc2c(c1)OCO2)C1CCS(=O)(=O)C1 (centres undefined)
-2.0%,-5%,-4%,/,Cc1cnc(C(=O)Oc2ccc(-c3ccccc3)cc2)cn1
4.8%,0%,10%,-7,CCOc1cc(C(=O)NCCN2C(=O)S/C(=C\c3cccnc3)C2=O)cc(OCC)c1OCC
0.3%,-22%,-6%,1,O=C(N/N=C/c1c[nH]c2ccc(Br)cc12)c1ccncc1
0.4%,3%,22%,/,O=C(C1CC(=O)N(c2ccc3c(c2)OCCO3)C1)N1CCN(c2ccccc2O)CC1 (centres undefined)
0.9%,24%,-5%,-8,COc1cc(C(=O)NC(=S)Nc2ccc([N+](=O)[O-])cc2)cc(OC)c1OC

Part of the list above in another layout:
compound,Rango-impB inh,Rango release inh,miR-21 FLuc,GLA inh pH 4.5
O=C(C1CC(=O)N(c2ccc3c(c2)OCCO3)C1)N1CCN(c2ccccc2O)CC1 (centres undefined),0.4%,3%,22%,/
CN(C(=O)c1ccc2c(c1)OCO2)C1CCS(=O)(=O)C1 (centres undefined),3.1%,5%,/,/
O=C(N/N=C/c1c[nH]c2ccc(Br)cc12)c1ccncc1,0.3%,-22%,-6%,1
Cc1cnc(C(=O)Oc2ccc(-c3ccccc3)cc2)cn1,-2.0%,-5%,-4%,/
COc1ccc(-c2c(-c3cc(OC)cc(OC)c3)n(C)c3ccc(-c4ccc5c(c4)OCCO5)cc23)cc1,-5.2%,7%,/,/
O=C(Nc1ccccc1F)C(=O)Nc1cccc2ccccc12,-1.0%,-14%,-60%,/

Continued.
Rango-impB inh,Rango release inh,miR-21 FLuc,GLA inh pH 4.5,molecule
-2.0%,1%,-6%,/,C=CCCC(=O)N1CCC(CCC(=O)NC2CC2)CC1
-0.2%,9%,-6%,0,CCCC(=O)Oc1ccc(N(C(=O)CCC)S(=O)(=O)c2cccc([N+](=O)[O-])c2)cc1
/,/,18%,-8,COc1ccccc1/C=N/N1C(=O)C(CC(=O)Nc2ccc([N+](=O)[O-])cc2OC)SC1=Nc1cccc(C)c1C (centres undefined)
3.7%,7%,/,/,CC1CC(C)(C)NC2(CCCC2)N1 (centres undefined)
-0.7%,-7%,0%,/,CCOC(=O)Cn1ccc(NC(=O)c2ccc(F)cc2)n1
-2.1%,23%,-5%,-1,Cc1ccc2c(c1)C(=O)C(=O)N2CC(=O)OC(C)C
2.2%,-12%,/,/,COC(C[C@H]1O[C@@H]1C(=O)COCc1ccccc1)OC
0.2%,0%,0%,/,O=C(CCCCCn1c(=S)[nH]c2cc3c(cc2c1=O)OCO3)N1CCN(c2ccc(F)cc2)CC1
0.2%,0%,-2%,-7,Cc1[nH]c2ccccc2c1C(=O)C(=O)NCCCn1ccnc1
4.1%,6%,0%,-5,O=C(O)CCC(=O)Nc1ccccc1C(=O)NCc1ccco1
0.1%,0%,-3%,-13,O=C(CCS(=O)(=O)c1cccc2nsnc12)N1CCN(C(=O)c2ccco2)CC1
-2.1%,-1%,-14%,5,CCN(CC)C(=O)CSc1n[nH]c(=S)n1N
?,1%,-19%,5,O=C(COc1ccccc1[N+](=O)[O-])N/N=C/c1ccncc1
-2.1%,3%,10%,-5,Cc1ccccc1C(=O)N1CCC(C(=O)Nc2ccc(S(=O)(=O)N3CCCC3)cc2)CC1
2.0%,12%,2%,0,Cc1ccsc1C(=O)Nc1cccc(S(=O)(=O)N(C)C)c1
?,13%,/,/,C[C@]12C(=O)N(c3ccc(F)cc3)C(=O)N1[C@H]1c3ccccc3OC[C@@H]1[C@H]2c1ccccc1
-5.0%,10%,-1%,/,CC(C)[C@H](NC(=O)OCc1ccccc1)C(=O)OCC(=O)NC1(C#N)CCCC1
-0.7%,14%,-5%,/,CC(=O)Nc1ccc(NC(=O)CCC(=O)OCC(=O)c2ccc(F)cc2)cc1
1.9%,-16%,-5%,-24,Cc1cc2cc3c(cc2nc1SCC(=O)N1CCN(C(=O)c2ccco2)CC1)OCO3
-0.4%,-15%,-1%,-12,CCc1nnc(NC(=O)[C@@H](NC(=O)c2ccc(C(C)(C)C)cc2)C(C)C)s1
-4.2%,0%,/,/,Cc1cc([N+](=O)[O-])c(=O)[nH]c1C
-1.2%,-9%,/,/,O=C(NCc1nc2ccccc2[nH]1)C1=C[C@H](c2coc3ccccc3c2=O)C[C@H](OCCCCO)O1
1.1%,-5%,-2%,0,CCN(CC)CCNC(=O)C(C)c1nn(CC)c(=O)c2ccccc12 (centres undefined)
?,-24%,-7%,/,CCCCN1CC(=O)N2Cc3[nH]c4ccccc4c3C[C@H]2C1=O

Shown in CSV form: part of the list above
SMILES,Rango-impB inh,Rango release inh,miR-21 FLuc,GLA inh pH 4.5
Cc1cc([N+](=O)[O-])c(=O)[nH]c1C,-4.2%,0%,/,/
O=C(NCc1nc2ccccc2[nH]1)C1=C[C@H](c2coc3ccccc3c2=O)C[C@H](OCCCCO)O1,-1.2%,-9%,/,/
CCN(CC)CCNC(=O)C(C)c1nn(CC)c(=O)c2ccccc12 (centres undefined),1.1%,-5%,-2%,0
CCCCN1CC(=O)N2Cc3[nH]c4ccccc4c3C[C@H]2C1=O,?,-24%,-7%,/

(cont.)
Rango-impB inh,Rango release inh,miR-21 FLuc,GLA inh pH 4.5,molecule
1.7%,-2%,24%,-8,Cc1cnc(NC(=O)CCCc2nc3ccccc3s2)s1
-0.3%,-19%,-11%,-4,Cc1cccc(OCC(O)Cn2c(NCc3cccnc3)nc3c2c(=O)[nH]c(=O)n3C)c1 (centres undefined)
0.4%,31%,-18%,4,CC1(C)CC(=O)C(/C=N/n2cnc3ccccc3c2=O)=C(O)C1
-1.9%,2%,-2%,4,COc1ccc(S(=O)(=O)N(C)C2CCS(=O)(=O)C2)cc1OC (centres undefined)
1.4%,5%,-5%,-14,COC(=O)c1sc(=S)n(-c2ccccc2OC)c1N
0.2%,1%,1%,1,Cc1ccc(S(=O)(=O)NNc2nc3ccccc3nc2C(F)(F)F)cc1
3.8%,7%,-25%,/,O=C(CCS(=O)(=O)c1ccccc1Cl)NCCC1=CCCCC1
-1.3%,-16%,/,/,COc1cccc(CNC(=O)CSCC(=O)Nc2cc(C)on2)c1
?,-16%,-1%&11%,/,CCc1nc2ccc(C(=O)NCCc3ccc(OC)c(OC)c3)cc2nc1CC
0.7%,1%,-18%,9,COCC(C)n1c(C)cc(C(=O)COC(=O)c2ccc3ncsc3c2)c1C (centres undefined)
2.8%,5%,-4%,/,Cc1ccc(NS(=O)(=O)c2c(C)[nH]c(C)c2C(=O)N2CCCCC2)c(C)c1
-0.4%,1%,/,/,Cc1ccccc1OCCC(=O)N1CCN(S(=O)(=O)c2ccc(Cl)cc2)CC1
?,20%,-3%,-7,COc1ccc(C(=O)NC(=S)Nc2ccc3oc(=O)ccc3c2)cc1
-2.7%,-3%,-8%,-8,COc1ccc(N2CCN(C(=O)c3cccc4nc(C)oc34)CC2)cc1
?,-14%,0%,/,Cc1nc(NC(=O)CSc2nnc(C3CC3)n2C)sc1C(=O)N(C)C
-1.6%,-2%,-3%,0,CCOC(=O)c1c(C)oc2ccc(O)c(CN(C)C)c12
1.2%,-4%,16%,5,CCCC(=O)c1ccc(N2CCN(C(=O)c3ccccc3)CC2)c(F)c1
-0.6%,-7%,28%,-5,Cc1ccc(-n2nnnc2SC(C(=O)c2c[nH]c3ccccc23)c2ccccc2)cc1 (centres undefined)
?,?,0%,-22,COc1cccc(C2C=C(c3cccs3)Nc3ncnn32)c1OC (centres undefined)
2.3%,22%,-1%,5,O=C(NCCCc1ccccc1)Nc1cccc(Cl)c1
0.1%,0%,/,/,O=C(OCC(=O)C12CC3CC(CC(C3)C1)C2)c1ccccc1O
-2.2%,-13%,/,/,COc1ccccc1C(=O)NCCC(=O)N1CCCC(C(F)(F)F)C1 (centres undefined)
-2.1%,5%,-3%,4,CCNCCC(CCC(C)C)c1ccc2c(c1)OCO2 (centres undefined)
3.9%,2%,9%,4,CS(=O)(=O)N1CCN(c2ccccc2NC(=O)c2ccc(Cl)cc2)CC1
